# miR-21 FLuc: qHTS Assay for Modulators of miRNAs and/orActivators of miR-21; HeLa miR-21 FLuc reporter, luciferase, 48 h; Potency, µM (top dose mostly 38.3 µM), for inactives: top-dose reporter change, positive = more light; 340,000 tested, under 10 active; active = well fitted rising curve with a large enough effect; inconclusive = small, poorly fitted or top-dose-only effect; inactive = no such curve, though single readings can be large or run the other way;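 note: % of control where 0% means no effect; miR-21 action dims this reporter so a rising signal means less miR-21 action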
#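 HeLa miR-21-FLuc reporter line, endogenous miR-21; 2000 cells/well in DMEM/10% FBS; compound titration up to ~40uM final, 48 h, 37 degree Celsius; luciferase detection reagent, 15 min lysis, CCD luminescence.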
# Rango release inh: qHTS Assay for Inhibitors of RanGTP induced Rango (Ran-regulated importin-beta cargo) - Importin beta complex dissociation | Snurportin-1 (Homo sapiens) + GTP-binding nuclear protein Ran (Homo sapiens) + Importin … | Biochemical FRET Rango-importin beta, RanGTP-induced dissociation | Potency, µM (highest dose often 46.1 µM), for the others: top-dose activity change, negative = inhibition | actives 0.071% (n = 340,000); active means falling FRET ratio curve, often poorly fitted, with flat reads before Ran was added; inconclusive means other falling curves, or compound fluorescence or quenching; inactive means flat or rising ratio curve;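 note: potency is the fitted concentration of half-maximal effect; % of control where 0% means no effect; nearly all actives have a fitted effect of over 45% in size; -100% = wells without RanGTP and RCC1; the record marks most hits as doubtful in a second field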
#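 Rango/importin beta premix (0.1/0.25 uM final), PBS + 1 mM DTT + 0.02% Tween-20 + 0.1% BSA; cpd 5 min RT; FRET pre-read; + RanGTP-RCC1 (0.6 uM Ran, 2 mM GTP, 0.2 uM RCC1); 45 min RT; FRET post-read, ex 430, em 486/530 nm.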
# Rango-impB inh: qHTS Assay for Inhibitors of Rango (Ran-regulated importin-beta cargo) - Importin beta complex formation; Importin subunit beta-1 (Homo sapiens), Q14974; Rango CFP/YFP FRET sensor + importin beta, 45 min; Potency, µM (top dose mostly 92.2 µM), for the others: top-dose inhibition of complex formation; actives 0.031% (n = 340,000); active = rising FRET ratio curve, often small or poorly fitted; inconclusive = mostly compound fluorescence or quenching in the first reads; inactive = flat curves in all reads;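 note: potency is the fitted concentration of half-maximal effect; 0% = DMSO wells and 100% = buffer wells lacking importin beta; nearly all actives have a fitted effect of over 15% in size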
#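 FRET biosensor (snurportin 1 IBB flanked by EYFP and cerulean), 50 nM, with compound 5 min, then 0.125 microM importin beta in PBS, 1 mM DTT, 0.02% Tween-20, 0.1% BSA. CFP/YFP ratio read after 45 min at room temperature; pre-read flags interference.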
# GLA inh pH 4.5: qHTS Assay for Inhibitors of Human alpha-Galactosidase at pH 4.5 | Alpha-galactosidase A (Homo sapiens), P06280 | purified enzyme, 4-MU-alpha-Gal fluorescence, pH 4.5 | activity change, negative = inhibition, % at 105 µM | 230,000 tested, under 10 active; inconclusive = small, poorly fitted or top-dose-only inhibition, or a rising curve; inactive = flat fitted curve, though single readings scatter; no compound was filed as active;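 note: 0% = full activity with enzyme and -100% = basal without enzyme; dose as in the result columns while the protocol names 77 µM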
# Target sequence (P06280 whole entry, looked up): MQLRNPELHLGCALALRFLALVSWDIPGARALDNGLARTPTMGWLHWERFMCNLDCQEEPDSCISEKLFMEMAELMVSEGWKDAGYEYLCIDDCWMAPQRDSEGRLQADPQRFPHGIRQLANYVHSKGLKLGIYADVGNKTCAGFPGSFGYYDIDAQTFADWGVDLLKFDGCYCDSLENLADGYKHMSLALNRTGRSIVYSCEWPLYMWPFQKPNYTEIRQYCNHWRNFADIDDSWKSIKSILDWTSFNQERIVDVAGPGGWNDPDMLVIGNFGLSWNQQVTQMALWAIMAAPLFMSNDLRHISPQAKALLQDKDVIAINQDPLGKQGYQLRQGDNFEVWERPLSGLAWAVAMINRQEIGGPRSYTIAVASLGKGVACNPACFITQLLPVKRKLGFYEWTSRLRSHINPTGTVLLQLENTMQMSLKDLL
# Numbers without * were called inactive; ? = inconclusive; . = not tested or not shown.
# Values in the order: miR-21 FLuc	Rango release inh	Rango-impB inh	GLA inh pH 4.5
- CCCCc1cc(=O)oc2cc(OC(C)C(=O)NCCN3CCOCC3)c(Cl)cc12 (centres undefined)
  -6.3%	-9.0%	-0.3%	.
- N#Cc1nc(-c2cccc3ccccc23)oc1N1CCCCC1
  -13.9%	-10.8%	-0.2%	5.6
- CC(=O)c1ccc(-c2c(C)cc3oc(=O)cc(-c4ccccc4)c3c2C)cc1
  .	-6.0%	-1.2%	-14.2
- Cn1c(=O)c2c(ncn2CC(=O)OCCCC(=O)c2ccc(Br)cc2)n(C)c1=O
  .	8.9%	4.9%	.
- CN(C)S(=O)(=O)c1cccc(COC(=O)Cc2c(F)cccc2Cl)c1
  -5.2%	0.0%	-2.2%	.
- O=[N+]([O-])c1ccc(-c2cn(-c3ccc(Cl)cc3)c(=S)[nH]2)cc1
  -16.4%	3.1%	0.9%	-1.4
- COC(=O)c1c(NC(=O)C(=O)N2CCCC2)sc2c1CC(C)(C)OC2
  4.7%	0.0%	2.8%	.
- O=c1sc2ccccc2c(N2CCCCC2)c1[N+](=O)[O-]
  2.1%	4.9%	2.8%	-1.5
- O=C(c1ccccc1)N1CCN2C(=O)c3ccccc3C12c1ccc(Cl)cc1 (centres undefined)
  -3.7%	-0.9%	-0.9%	-3.5
- CSc1nc2c(cnn2-c2ccccc2)c(=O)n1N
  -53.5%	1.1%	-3.9%	0.6
- Cc1ccc(NC(=O)CSc2nnc(Cn3c(=O)sc4ccccc43)n2C)cc1Cl
  0.8%	-0.4%	-1.0%	-11.5
- O=C1C2C3c4ccccc4C(c4ccccc43)[C@@H]2C(=O)N1c1cccnc1 (some centres undefined)
  18.7%	0.3%	9.3%	-0.1
- N#Cc1ccsc1NC(=O)c1ccccn1
  -28.4%	1.0%	5.0%	-5.1
- COc1ccc(CNC(=O)COc2ccc(S(=O)(=O)N3CCOCC3)cc2)cc1
  .	-21.1%	-0.2%	.
- Cc1ccc(/C=C(/NC(=O)c2ccccc2)C(=O)NC(Cc2c[nH]c3ccccc23)C(=O)O)cc1 (centres undefined)
  0.9%	-0.6%	-1.1%	.
- CCOC(=O)CCCNC(=O)c1cncc(Br)c1
  -1.7%	-6.3%	0.3%	-8.0
- COC(=O)N/N=C/c1ccc(-c2ccccc2Cl)o1
  -28.7%	-18.8%	?	4.5
- Cc1nn(Cc2c(Cl)cccc2Cl)c(C)c1NC(=O)c1cn(-c2ccccc2)nc1-c1ccccc1
  -2.9%	-2.5%	-2.5%	2.7
- O=C1S/C(=C\c2ccccc2)C(=O)N1CC(O)Cn1c2ccccc2c2ccccc21 (centres undefined)
  1.3%	3.1%	-1.4%	3.4
- NC(=O)c1c(NC(=O)c2ccco2)sc2c1CCC2
  -38.6%	-18.2%	?	-3.7

# Fetched one by one from the list above, 2 records:
# Values in the order: miR-21 FLuc	Rango release inh	Rango-impB inh	GLA inh pH 4.5
- COC(=O)N/N=C/c1ccc(-c2ccccc2Cl)o1
  -28.7%	-18.8%	?	4.5
- COc1ccc(CNC(=O)COc2ccc(S(=O)(=O)N3CCOCC3)cc2)cc1
  .	-21.1%	-0.2%	.

# Next part
# Values in the order: miR-21 FLuc	Rango release inh	Rango-impB inh	GLA inh pH 4.5
- CCN(CC)C(=O)CN(Cc1ccccc1)S(=O)(=O)c1ccc(F)cc1
  -2.0%	9.9%	1.2%	1.6
- Cc1cc2c(cc(C(=O)OC(C)C(=O)NCc3ccc(F)cc3)n2C)o1 (centres undefined)
  .	-20.4%	5.3%	.
- COc1ccc(CCNc2nc(-c3ccncc3)cs2)cc1OC
  6.8%	10.8%	-1.6%	1.5
- COCCCNC(=O)CCn1nc(-c2ccc(Cl)cc2)ccc1=O
  0.6%	4.6%	1.9%	.
- CCOC(=O)CSC1=Nc2ccccc2C2=NC(CC(=O)NCc3cccs3)C(=O)N12 (centres undefined)
  -6.9%	-10.0%	-3.3%	-1.2
- Cc1ccc(-n2nnnc2CNC(=O)c2ccc([N+](=O)[O-])o2)cc1C
  .	-11.8%	0.5%	.
- CC(CCc1ccccc1)NC(=O)COC(=O)c1cc(NS(=O)(=O)c2ccc(Cl)c([N+](=O)[O-])c2)ccc1O (centres undefined)
  7.7%	-0.5%	4.0%	-0.3
- CCCNC(=O)COC(=O)c1ccc(-c2ccccc2)cc1
  1.8%	-4.7%	-3.1%	5.5
- O=C1OC(Nc2nccs2)c2ccccc21 (centres undefined)
  -3.1%	-4.3%	0.0%	7.7
- COc1ccc(CCNC(=O)c2ccc([N+](=O)[O-])cc2)cc1
  -7.7%	10.4%	2.0%	-6.0
- Cc1ccc(F)cc1NC(=O)Nc1cc(C(C)(C)C)nn1C
  0.6%	-9.9%	1.6%	-4.8
- COc1ccc(/C=C2/C(=O)OCc3cc(OC)c(OC)cc32)cc1
  26.0%	23.3%	-0.2%	-7.8
- Cc1ccc2ncc([N+](=O)[O-])n2c1
  1.2%	-14.3%	-0.5%	-12.7
- Cc1ccc(C)c(OC(=O)c2cccc(S(=O)(=O)N3CCN(C)CC3)c2)c1
  0.0%	4.0%	-1.5%	.
- COc1ccc(-c2cc(C(=O)Nc3ccccc3SC)no2)cc1OC
  -7.0%	3.1%	0.6%	-2.5
- CCCCCc1ccc(-c2cn(Cc3ccc(C)cc3)nn2)cc1
  0.9%	8.1%	-6.9%	.
- Fc1ccc(CN2CCN(C(c3ccccc3)c3ccccc3)CC2)cc1
  4.7%	-16.8%	3.3%	.
- Cc1cccc(C(=O)Nc2cc(NC(=O)c3cccs3)ccc2C)c1
  10.3%	-9.2%	-4.5%	.
- O=C(O)CSCC(=O)NCc1cccc(C(F)(F)F)c1
  0.3%	-8.3%	-3.6%	4.4
- CCN(CC)S(=O)(=O)c1ccc(N/N=C/c2ccc(O)cc2O)nc1
  6.0%	-13.6%	3.2%	13.7
- Cn1c(Cn2c(=O)sc3ccccc32)nnc1SCC(=O)N1CCc2ccccc21
  -5.3%	-19.1%	0.0%	1.8
- CC(C)(C)NC(=O)C1CCN(C(=O)c2ccco2)CC1
  -0.6%	1.7%	-0.1%	.
- CC(=O)c1ccc(N2CCN(C(=O)c3cc(-c4cccnc4)nc4ccc(Br)cc34)CC2)cc1
  -3.2%	-0.2%	0.0%	11.0
- COc1ccc(N2CCN(C(=O)CN3C(=O)NC(C)(c4ccc5ccccc5c4)C3=O)CC2)cc1 (centres undefined)
  .	0.7%	3.8%	.
- O=Cc1ccc(OCc2ccc3c(c2)OCO3)cc1
  -25.2%	1.8%	-5.5%	.
- COCCN(Cc1cc2cc(C)c(C)cc2nc1Cl)C(=O)Nc1ccccc1
  0.6%	-5.1%	-0.5%	0.5
- O=C(O)CCC1(C(=O)O)OCCc2ccccc21 (centres undefined)
  -0.4%	-0.7%	-4.3%	-3.0
- CC1(c2ccccc2Cl)NC(=O)N(CC(=O)Nc2ccc(N3CCCCC3)cc2)C1=O (centres undefined)
  .	7.6%	0.3%	.
- Cc1nnc(-c2ccc(Oc3ccc(Cl)cc3)c([N+](=O)[O-])c2)o1
  9.5%	-6.5%	-0.5%	-20.4
- COc1ccc(OCCN2CCN(S(=O)(=O)c3ccccc3C#N)CC2)cc1
  .	-6.0%	-3.0%	.
- Cc1ccccc1OCC(O)CN1CCC(C)CC1 (centres undefined)
  -1.8%	21.0%	-0.1%	-5.1
- COC(=O)c1sccc1NC(=O)Cn1cnc2c1c(=O)n(C)c(=O)n2C
  -4.4%	-7.3%	-1.1%	-5.0
- O=C1c2ccccc2C(Nc2ccc(S(=O)(=O)N3CCCCC3)cc2)N1c1ccccn1 (centres undefined)
  -7.8%	10.3%	2.5%	-8.0
- COC(=O)c1ccc(C(=O)Nc2cc(Cl)ccc2Cl)cc1NC(=O)c1ccc(N(C)C)cc1
  -1.6%	-14.4%	-0.9%	-3.1
- COCCCn1c(SC(C)C(=O)NC2CC2)nc2ccccc2c1=O (centres undefined)
  .	?	-0.6%	.
- O=C(Nc1ccc2c(c1)OCO2)N1CCCC1
  -41.5%	-7.4%	-0.8%	6.4
- COC(=O)C(Cc1ccccc1)NC(=O)CCCC(=O)NCc1cccc(OC)c1 (centres undefined)
  3.7%	3.4%	-0.5%	.
- CCN(CC)S(=O)(=O)c1ccc(NC2CCCc3ccccc32)nc1 (centres undefined)
  -8.4%	-11.4%	3.3%	-28.2
- COc1ccc(C(=O)Nc2ccc(NC(=O)c3ccccn3)cn2)cc1
  -22.7%	-15.2%	5.0%	.
- C#CCOc1ccc(C2C3=C(CCCC3=O)N(CC(=O)O)C3=C2C(=O)CCC3)cc1Br
  -3.9%	?	?	.
- COc1ccc(S(=O)(=O)N2CCCCCC2)cc1C(=O)N(C)Cc1ccco1
  .	-2.6%	-1.3%	.
- O=C(O)/C=C\C(=O)Nc1ccccc1C(=O)NC1CCCCC1
  -40.0%	-6.7%	-0.2%	7.5
- CCCSc1nc2[nH]ncc2c(=O)[nH]1
  2.0%	2.0%	-0.3%	2.4
- Cc1ccc(N(C(=O)c2csnn2)C(C(=O)NC2CCCCC2)c2ccccn2)c(C)c1 (centres undefined)
  -1.3%	3.2%	0.3%	.
- Cc1ccc(NC(=O)Cn2cccc2C2=NC(c3ccccc3)CO2)c(C)c1 (centres undefined)
  -2.3%	-0.5%	-0.5%	3.0
- Cc1cc(C)c[n+](-c2[nH]c(=O)sc2/C=N/NC([S-])=Nc2ccccc2)c1
  -7.2%	-2.5%	?	-20.5
- Fc1cccc(Cl)c1Cn1nnc2c(N3CCC4(CC3)OCCO4)ncnc21
  -0.1%	-1.4%	-1.8%	-3.5
- Cc1cccc(N(CC(=O)NCCC2=CCCCC2)S(C)(=O)=O)c1C
  1.6%	-0.1%	-6.6%	1.9
- O=C(COC(=O)c1ccccc1OCc1ccc(Cl)cc1)NC1CC1
  -0.9%	-1.2%	-2.1%	-5.4
- N#CCc1ccc(NC(=O)Nc2cccc3ccccc23)cc1
  -19.6%	8.7%	-1.2%	.

# Going on with the list.
# Values in the order: miR-21 FLuc	Rango release inh	Rango-impB inh	GLA inh pH 4.5
- C#CCOCCOCCOCCNc1nc(N2CCN(C(=O)[C@H](C)n3cc(CCC(=O)O)nn3)CC2)nc(N2CCN(C(=O)[C@H](Cc3ccc(O)cc3)n3cc(CCO)nn3)CC2)n1
  .	8.1%	-1.4%	.
- O=[N+]([O-])c1c(Nc2ccc(Br)cc2)ccc2nonc12
  ?	9.9%	1.1%	.
- [O-][n+]1c2c(c3c4non(O)c4ccc31)CCCC2
  12.5%	1.8%	-1.5%	1.9
- Cc1ccn(CCC(=O)Nc2ccc(-c3ccno3)cc2)n1
  -10.0%	12.2%	-0.1%	.
- CCCCCc1ccc(-c2ccc(=O)[nH]n2)cc1
  -42.0%	18.7%	-0.6%	4.8
- O=C(CNC1CCCCCC1)Nc1ccc(S(=O)(=O)NC2CC2)cc1
  -4.3%	15.7%	-0.4%	-9.5
- Oc1ccc(C[C@H]2CNC(=S)N2CC2CCCN2C[C@H](Cc2ccccc2)N2C[C@H](Cc3ccc(O)cc3)N(CCc3ccccc3)C2=S)cc1 (some centres undefined)
  .	-15.6%	2.3%	.
- Cc1ccccc1OCc1nc(-c2ccc(NC(=O)c3ccco3)cc2)no1
  -45.1%	12.8%	?	-11.0
- Nc1ccc(C(=O)Nc2nc3ccccc3s2)cc1
  -4.0%	52.4%	3.5%	2.6
- c1cc(-c2cc3cc4c(cc3cn2)OCO4)cs1
  .	6.9%	-1.5%	.
- CC(C)(C)OC(=O)n1cccc1/C=C1\c2ccccc2C(=O)N1c1ccccc1
  .	?	?	.
- CN(C(=O)Cn1cnc2sccc2c1=O)C1CCCCC1
  .	2.7%	-3.1%	.
- CC(C)c1ccc(CNc2ccc([N+](=O)[O-])cn2)cc1
  -35.9%	2.4%	0.7%	-11.0
- CC1CCCN(C(=S)Nc2ccc3nc4n(c(=O)c3c2)CCCCC4)C1 (centres undefined)
  -17.0%	-8.4%	-1.1%	-11.2

# Screens deposited in PubChem by National Center for Advancing Translational Sciences (NCATS).

# Only part of the results is shown; the hit share may differ from the screen's.
